TRPML1 blocker: inhibitors of human TRPML1 channel; Q9GZU1; TRPML1-inducible cells, Ca2+ dye fluorescence, FDSS; stronger effect = lower value; inhibition of EC80 agonist-evoked calcium signal; activity change, negative = inhibition, % (test concentration not listed); 390,000 compounds, 0.02% hits; in the data active means activity change below about -50%; inconclusive means about -30% to -50%; inactive means above about -30%;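 further: stimulus is agonist 54-4 at its EC80 concentration; on the % scale 0 is the no-effect control and ±100 the full control effect; compound concentration not given in the record; the text of the record puts the active cut at -80%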
Target sequence (Q9GZU1 whole entry, looked up): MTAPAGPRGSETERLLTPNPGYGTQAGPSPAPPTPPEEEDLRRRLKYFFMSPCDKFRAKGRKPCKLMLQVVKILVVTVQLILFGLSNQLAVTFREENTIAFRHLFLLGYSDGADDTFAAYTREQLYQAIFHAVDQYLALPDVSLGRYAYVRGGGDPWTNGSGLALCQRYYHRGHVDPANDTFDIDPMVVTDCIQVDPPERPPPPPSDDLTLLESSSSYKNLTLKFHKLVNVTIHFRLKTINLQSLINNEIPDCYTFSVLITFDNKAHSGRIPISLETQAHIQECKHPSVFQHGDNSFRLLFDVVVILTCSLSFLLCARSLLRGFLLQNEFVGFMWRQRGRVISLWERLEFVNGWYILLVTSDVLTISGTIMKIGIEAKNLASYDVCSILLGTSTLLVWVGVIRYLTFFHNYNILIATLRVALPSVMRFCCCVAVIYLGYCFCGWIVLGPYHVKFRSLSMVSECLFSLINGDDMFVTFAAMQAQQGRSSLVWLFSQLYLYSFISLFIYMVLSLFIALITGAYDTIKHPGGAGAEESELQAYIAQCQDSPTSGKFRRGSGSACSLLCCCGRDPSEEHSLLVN
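Tet-induced TRPML1-DL cells loaded with Ca8 no-wash calcium dye were read kinetically on FDSS. Compound addition was followed by EC80 agonist 54-4 (4 uM final); inhibition was read over 110 s.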
ClpP mod: qHTS Assay for Activators of ClpP; ATP-dependent Clp protease proteolytic subunit (Bacillus subtilis (strain 168)), P80244; purified B. subtilis ClpP, FRET peptide cleavage, 20 min; Potency, µM (highest dose often 57.5 µM), inactives show at the highest dose activity change, negative = active; 340,000 compounds, 1.9% hits; active = well fitted falling curve with a large enough effect; inconclusive = small, poorly fitted or top-dose-only effect; inactive = no such curve, though single readings can be large or run the other way; further: potency means the concentration at half of the fitted maximal effect; the source files actives as falling curves though it sought activators and does not explain the sign; nearly all actives have a fitted effect of over 65% in size; many hits overshoot -100%
Target sequence (P80244 whole entry, looked up): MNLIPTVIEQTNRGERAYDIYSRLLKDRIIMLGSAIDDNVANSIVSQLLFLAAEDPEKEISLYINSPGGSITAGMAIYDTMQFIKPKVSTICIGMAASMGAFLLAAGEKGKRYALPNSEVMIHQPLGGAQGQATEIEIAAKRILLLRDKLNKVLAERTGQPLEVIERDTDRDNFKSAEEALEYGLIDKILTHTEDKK
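Purified B. subtilis ClpP, 10 microg/mL final in Tris/HCl pH8 with KCl, BSA, glycerol and Tween-20, cleaved an Abz/nitrotyrosine-quenched decapeptide. Fluorescence (ex 320, em 430) was read at 0 and 20 min at room temperature. Delta was normalized to 5.8 microM ADEP and DMSO/no-enzyme controls.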
Sfp PPTase inh: blocks B. subtilis Sfp PPTase activity; 310,000 compounds, 3.5% hits; Q9F4F7; Biochemical Sfp PPTase activity, qHTS; Potency, µM, inactives show max response, negative = inhibition, hits mostly inhibitors; active means well fitted inhibition curve with a large enough effect; inconclusive means small, poorly fitted or top-dose-only effect, or another doubt; inactive means no such curve, though single readings can be large or run the other way;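 further: the enzyme is Sfp with the accession as filed and its product quenches rhodamine fluorescence; potency means the concentration at half of the fitted maximal effect; 0% = enzyme reaction without inhibitor and -100% = no enzyme wells; top concentration of the series not given in the record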
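Sfp 15 nM + cpd, 15 min RT; start w/ rhodamine-CoA 5 uM, BHQ-2-YbbR 12.5 uM (final); 50 mM Hepes pH 7.6, 10 mM MgCl2, 0.01% NP-40, 0.01% BSA; read 525/598 nm at 0 and 30 min.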
gsp antag: gsp mutant antagonism; gsp-mutant cells, cAMP HTRF, 30 min; control for the full effect not named in the record; Potency, µM (highest dose often 76.9 µM), inactives show at the highest dose activity change, negative = inhibition, most hits filed as inhibitors; 340,000 compounds, 0.4% hits; AID 624288; active = falling curve of any shape with a large fitted effect; inconclusive = falling curve, mostly with a smaller effect; inactive = flat or rising curve; cell line not stated here;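 further: intracellular cAMP measured with PDE inhibitor Ro 20-1724 present during compound exposure; potency means the concentration at half of the fitted maximal effect; on the % scale 0 is the no-effect control and ±100 the full control effect; nearly all actives have a fitted effect of over 65% in size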
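Measurement of cellular cAMP by homogeneous time-resolved fluorescence following a 30 min compound exposure at 37C. The PDE inhibitor […] was present throughout; the assay buffer was DPBS with 0.05% BSA and 0.005% Tween 20.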
Menin MLL FP FL: menin-MLL binding inhibition, fluorescein peptide; Fluorescence polarization, fluorescein-MLL peptide displacement from menin; FP activity change, % at 61.4 µM; 290,000 tested, under 10 active; AID 1766; inconclusive = falling polarisation curve, or a change in total fluorescence; inactive = total fluorescence flat and polarisation flat or rising; no compound was filed as active; the % refers to the polarisation; negative = inhibition;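 further: % of control where 0% means no effect; inhibitors lower the polarisation; unlabelled MLL peptide was the positive control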
gsp agonist: activates gsp, the McCune-Albright syndrome mutation; gsp mutant cells, cAMP HTRF, 30 min; control for the full effect not named in the record; Potency, µM (series often up to 76.9 µM), inactives show at the top dose activation (cAMP increase), hits mostly activators; 340,000 compounds, 0.13% hits; active = well fitted activation curve with a large enough effect; inconclusive = small, poorly fitted or top-dose-only effect, or another doubt; inactive = no such curve, though single readings can be large or run the other way; cell line not stated here;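 further: phosphodiesterase inhibitor Ro 20-1724 added with compounds to block cAMP breakdown; potency means the concentration at half of the fitted maximal effect; nearly all actives have a fitted effect of over 60% in size; about a fifth of the inactives were tested at one dose only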
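Cells in DMEM/10% FBS with G418 were pretreated with compounds in DMSO plus […] (300 uM stock) for 30 min at 37C. cAMP was measured by HTRF (cAMP-d2 plus anti-cAMP antibody-K) after 30 min at room temperature.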
TRPV1 potentiator: human TRPV1 potentiation. Q8NER1. TRPV1-expressing cells, Fluo-8 calcium influx, capsaicin EC20 potentiation; host cell line not named in the record; control for the full effect not named in the record. potentiation, % at 8.33 µM. 320,000 compounds, 0.02% hits. AID 540277; active means potentiation above 80%; inconclusive means 30% to 80%; inactive means below 30%; further: 0% is about no effect
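TRPV1-expressing cells were cultured overnight at 35.5C and loaded with Fluo-8 calcium dye for 40 to 90 min at room temperature. After a 10 s baseline, compound was added and calcium influx was read kinetically for 3 min (ex 480/em 520 nm).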
* marks the source's active call; other numbers are inactive results; ? = inconclusive; . = no result given; & = joins results of further samples; [ ] = another dose, or the depositor's remark.

canonical_smiles,TRPV1 potentiator,gsp agonist,Sfp PPTase inh,TRPML1 blocker,gsp antag,Menin MLL FP FL,ClpP mod
CC(Nc1nc(N2CCOCC2)nc2ccccc12)c1ccccc1 (centres undefined),-10,0%[15.4 µM],-10%,31,-19%,0.7,.
O=C(NCC1CCCO1)c1cccc(Oc2ccc([N+](=O)[O-])cc2Cl)c1 (centres undefined),29,-18%,-8%,11,-19%,3.3,.
Cc1ccc(S(=O)(=O)N2CCN(Cc3ccco3)CC2)cc1C,-34,?,7%,-2,5%,1.3,1.1%
O=C(CN(Cc1ccco1)C(=O)CCC(=O)Nc1ccccn1)NCCc1ccccc1,0,-12%,9%,-11,3%,6.2,1.3%
NNc1cc(C(=O)O)ccc1Cl,7,-28%[15.4 µM],?,26,0%,-0.3,.
Cc1ccc(-c2nn(C)c(=O)c3ccccc23)cc1S(=O)(=O)N1CCOCC1,-4,7%,3%,6,2%,2.5,-1.7%
COCCNC(=O)c1c[nH]n2c(=O)cc(C3CCN(C(=O)OC(C)(C)C)CC3)nc12,-8,3%,15%,-14,-2%,2.7,4.8%
c1csc(CSc2nc3ccccc3s2)c1,-11,-7%,-23%,-7,-9%,1.6,-0.5%
CC(Oc1ccccc1)C(=O)N1CCN(c2ccc(N3CCCCCC3)nn2)CC1 (centres undefined),-6,16%[15.4 µM],.,4,-23%,.,0.0%
O=C1/C(=C/c2cccc(O)c2)SC(=S)N1CC1CCCO1 (centres undefined),0,8%[15.4 µM],13%,-7,-18%,2.2,.
O=C(Nc1ccc(Br)cc1)N1CCCCCCC1,-8,-31%[inhibitor],11%,5,4%,-3.0,-2.4%
COc1ccc(NC(=O)N(C)C[C@H]2Oc3cc(Br)ccc3S(=O)(=O)N([C@H](C)CO)C[C@@H]2C)cc1,.,-62%[inhibitor],.,-4,.,.,1.5%
CCC(=O)Nc1ccc(NC(=O)CCc2ccccc2)cn1,-3,-55%[inhibitor],28%,21,2%,0.5,.
CCC1CN(C(=O)NCc2cccc(OC)c2)c2cc(Cl)ccc2O1 (centres undefined),-12,-39%[inhibitor],-2%,-9&-17,-18%,-0.2,0.7%&-2.1%
O=C(Nc1cc(Cl)ccn1)C1CCN(S(=O)(=O)c2cccs2)CC1,-12,-12%,6%,2,9%,-2.5,0.0%
Cc1ccccc1Cc1c(C)nc2nc(SCC(=O)NCCCN3CCCC3)nn2c1C,-9,-11%,10%,20,0%,2.4,.
CC(C)(C)c1ccc(C(=O)Nc2ccc(O)c3c(=O)cc(-c4ccccc4Cl)oc23)cc1,-7,-37%,-6%&11%,55&-5,12%,-4.1&-1.6,0.6%
CCOc1ccc2nc(C)cc(Nc3cccc([N+](=O)[O-])c3)c2c1,16,-9%,4%,22,-13%,-2.3,5.0%
O=C(O)c1ccccc1-c1ncc(-c2ccccc2)o1,.,-1%,.,-6,-3%,.,.
Cc1ccc(S(=O)(=O)NNC(=O)CCC(=O)Nc2ccc(C)c(C)c2)cc1,9,-2%,4%,4,-2%,1.3,-1.4%

(listing goes on)
canonical_smiles,TRPV1 potentiator,gsp agonist,Sfp PPTase inh,TRPML1 blocker,gsp antag,Menin MLL FP FL,ClpP mod
CCn1c(SCC(=O)Nc2ccccc2F)nc2c(c1=O)SC(C)C2 (centres undefined),-1,10%,4%,34,-10%,1.5,-0.5%
COc1ccc(C)cc1S(=O)(=O)N(CC(=O)Nc1cccc([N+](=O)[O-])c1)c1ccccc1,-6,0%,2%,-1,-26%,-1.1,1.5%
COc1ccc(/C=C/C(=O)NNC(=O)c2ccncc2)c(OC)c1,-4,-1%,.,6,4%,.,-7.7%
CC1CCc2c(C(=O)NCc3ccccn3)csc2C1 (centres undefined),-31,-25%[15.4 µM],-21%,32,3%,-5.8,-0.8%
Cc1cc(N2C(=O)C(=O)/C(=C(/O)c3ccccc3)C2c2cccc(Br)c2)no1 (centres undefined),.,9%[15.4 µM],.,-9,-2%,.,.
C/C(CC(=O)NC1CCCCC1)=N\NC(=O)c1ccccn1,-12,13%[15.4 µM],89µM*,15,2%,8.1,.
COc1cc(C(=O)NC(C)c2cnn(-c3ccccc3C)c2C)cc(OC)c1OC (centres undefined),21,8%[15.4 µM],-5%,55,-2%,5.2,.
O=C1CC(c2ccc(Cl)cc2)CC(O)=C1C=NCc1ccc(Cl)c(Cl)c1 (centres undefined),-2,6%,-7%,-12,8%,2.3,-10%
CCCCCCC(C)OC(=O)Nc1cccc2ccccc12 (centres undefined),2,?,4%,13,3%,1.6,?
COc1ccc(C(c2c[nH]c3ccccc23)c2c[nH]c3ccccc23)cc1O,11,.,-8%,.,.,-0.3,.
O=C1C=CC(=O)c2c(O)c(N3CCN(CCOCCO)CC3)c(Br)c(O)c21,.,?,.,5,25µM*,.,2.5%
COC(=O)CSc1nnc(CNc2nc(-c3ccccc3)cs2)n1C,-10,0%,-19%,3,-14%,2.5,-1.0%
CS(=O)(=O)c1ccc2nc(NC(=O)CCNC(=O)c3ccc(Cl)cc3)sc2c1,-6,9%,.,2,15%,.,5.4%
COc1cc(C2C(N3C(=O)c4ccccc4C3=O)C(=O)N2c2ccc(C)c(C)c2)cc(OC)c1OC (centres undefined),9,0%,0%,20,-5%,4.6,.
O=C(Nc1ccc(F)c(F)c1)c1ccc2c(c1)OCO2,-20,5%,-2%,-6,6%,-1.9,0.1%
COc1cc(/C=C/C(=O)O[C@H]2[C@H](O[C@@H]3O[C@@H](C)[C@H](O)[C@@H](O)[C@H]3O)[C@@H](O)[C@H](OCCc3ccc(O)c(OC)c3)O[C@@H]2CO)ccc1O,.,.,.,-12,8%,.,-9.8%
COc1ccc(C2/C(=C(/O)c3ccc(F)cc3)C(=O)C(=O)N2CCCN2CCOCC2)cc1OC (centres undefined),-2,0%,-19%,.,3%,-1.5,0.5%
COc1ccccc1C(=O)NCCn1cc(SCC(=O)Nc2nnc(C)s2)c2ccccc21,14,1%,-19%,-4,-12%,-1.2,0.6%
COc1ccc(NC(=O)c2cc(S(=O)(=O)N3CCCC3)oc2C)cc1,12,-16%,-4%,23,-8%,-1.1,0.7%
CC(=O)c1cc(C#N)c(Oc2ccc(Cl)cc2Cl)nc1C,.,-14%,.,-3,2%,.,-2.3%

More compounds follow:
canonical_smiles,TRPV1 potentiator,gsp agonist,Sfp PPTase inh,TRPML1 blocker,gsp antag,Menin MLL FP FL,ClpP mod
CC(=O)Oc1ccc2c3c(c(=O)oc2c1C)CCCC3,-3,27%,6%,16,15%,-4.7,.
O=C1C2C(c3ccccc3)C=CC(c3ccccc3)C2C(=O)N1c1ccccn1 (centres undefined),8,-8%,13%,21,-15%,2.3,-4.0%
Cc1ccsc1C1C(C#N)=C(N)OC2=C1C(=O)CCC2 (centres undefined),6,-3%[15.4 µM],56µM*,-3,6%,-3.7,.
COc1ccc(NC(=O)C2CCCCC2)cc1S(=O)(=O)N1CCOCC1,.,6%,.,-1,3%,.,.
COc1ccc(OC)c(C2C=C(C34CC5CC(CC(C5)C3)C4)NC(=S)N2)c1 (centres undefined),?,5%,-8%,3,-10%,8.1,.
COc1ccc(CCN2C(=O)C3C4C=CC(C4)C3C2=O)cc1OC (centres undefined),2,10%,15%,-2,7%,0.6,-1.1%
CN(C)c1ccc(CN(C(=O)c2ccc(Cl)c([N+](=O)[O-])c2)C2CCS(=O)(=O)C2)cc1 (centres undefined),-9,-1%[15.4 µM],3%,2,-8%,-1.1,0.4%
Cc1cc(NC(=O)CS(=O)(=O)c2c[nH]c3ccccc23)no1,8,0%,10%,-1,4%,.,-0.2%
Cc1cc(C(=O)Nc2ccncc2)c2ccccc2n1,-13,14%,3%,-1,-12%,.,0.0%
CC1CC(C)C[N+](=C2C=C(N3CCCC3)CC(C)(C)C2)C1 (centres undefined),5,-2%,4%,-7,-16%,6.5,-4.6%
COc1ccc2oc(C(=O)OCC(=O)NCc3ccc(OC)c(OC)c3)c(C)c2c1,-10,-2%[15.4 µM],.,21,2%,.,.
COC(=O)C1CSC(C(=O)OC)N1C(=O)Nc1ccc(Cl)cc1 (centres undefined),4,-26%,10%,-6,2%,1.3,32µM*
C=CCOC(=O)c1c(C)nc2cc3c(cc2c1C)OCO3,-26,6%,3%,-24,13%,-0.6,-28%
Cc1nc2ccc(-c3nc4ccccc4o3)cc2[nH]1,-19,5%,9%,-14,-32%,2.9,3.2µM*
CCC(=O)Nc1ccc(C(=O)NCCCn2ccnc2)cc1,-10,-16%,4%,1,7%,-7.3,-0.9%
COc1ccc(-c2csc(Nc3ncccc3C)n2)cc1,13,-22%,4%,5,?,3.2,-1.4%
CCn1c(=S)[nH]c2scc(-c3cccs3)c2c1=O,0,?,-5%,12,-18%,-2.1,-0.7%
O=C(CNC(=O)c1ccc(Cl)cc1Cl)OCC(=O)N1CCN(c2ccccc2)CC1,-8,-79%[inhibitor],6%,-11,-1%,.,-0.1%

An excerpt from above in order of length of the SMILES, high to low.
canonical_smiles,TRPV1 potentiator,gsp agonist,Sfp PPTase inh,TRPML1 blocker,gsp antag,Menin MLL FP FL,ClpP mod
COc1ccc2oc(C(=O)OCC(=O)NCc3ccc(OC)c(OC)c3)c(C)c2c1,-10,-2%[15.4 µM],.,21,2%,.,.
Cc1nc2ccc(-c3nc4ccccc4o3)cc2[nH]1,-19,5%,9%,-14,-32%,2.9,3.2µM*
COc1ccc(-c2csc(Nc3ncccc3C)n2)cc1,13,-22%,4%,5,?,3.2,-1.4%
